# High-throughput results (PubChem)
# GALR2 agonist: agonists of human galanin receptor 2 (GALR2); AID 803; GALR2-expressing cells, agonist activation read-out; activation, %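 (tested at 5 µM)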; 140,000 tested, 0.48% active;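 active = above mean plus 3 SD of all compounds, about 5% in these data, not always enough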;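 note: 0% = vehicle buffer wells and 100% = reference agonist at full effect; tested in CHO reporter cells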
# Target sequence (O43603 whole entry, looked up): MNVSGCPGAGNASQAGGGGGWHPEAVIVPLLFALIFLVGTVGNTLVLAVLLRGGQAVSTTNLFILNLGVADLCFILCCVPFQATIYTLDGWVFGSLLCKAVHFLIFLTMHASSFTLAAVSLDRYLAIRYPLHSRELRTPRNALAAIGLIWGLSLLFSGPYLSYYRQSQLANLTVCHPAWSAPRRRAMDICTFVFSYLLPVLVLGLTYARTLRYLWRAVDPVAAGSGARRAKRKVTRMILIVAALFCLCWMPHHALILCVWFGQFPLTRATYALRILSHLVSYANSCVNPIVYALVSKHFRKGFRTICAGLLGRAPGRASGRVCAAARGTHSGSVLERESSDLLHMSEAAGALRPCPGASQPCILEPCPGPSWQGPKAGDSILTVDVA
# HSV replic up: HSV replication enhancement. HSV replication augmentation in cells, fold increase. 220,000 tested, 0.005% active. AID 1956. maximum fold increase;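 active = peak rise of 1.5-fold or more in the series; tested in PC3 cells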;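 note: first round at 10 µM; read as green reporter fluorescence; hits show the peak of a series up to 25 µM; 1 = signal of infected wells without compound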
# PKD1 inh: PKD1 (human) kinase inhibition; Q15139; PKD1 kinase fluorescence polarization assay; inhibition, %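 (about 10 µM by stock and volumes)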; 200,000 tested, 0.056% active;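 active = inhibition of 50% or more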;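 note: controls were vehicle for no effect and a reference inhibitor for full effect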
# INS promoter inh: TRM-6 insulin promoter activity inhibition; TRM-6 cells (human fetal islet line), insulin promoter-eGFP reporter, imaging; reporter expression induced with tamoxifen; inhibition, % at 2 µM; 130,000 tested, 0.9% active;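 active = inhibition above the mean plus 3 SD, with well images judged a real hit on visual review, cut at about 60% in these data, passing the limit was not always enough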
# RGS16-Gao HTS: regulators of human RGS16-Galphao interaction. O15492+P09471. bead-based flow cytometry RGS16-Galphao binding, fluorescence; actives lie on both sides. binding response (% of control), % at 10 µM. 220,000 tested, 0.38% active;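 active = below 25% or above 175%, edge rows of some plates excepted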;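 note: Galphao activated by GDP with aluminum fluoride before binding; 100% = wells without compound and 0% = beads without RGS; some results beyond the cut were filed as inactive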
# Target sequence (O15492 whole entry, looked up): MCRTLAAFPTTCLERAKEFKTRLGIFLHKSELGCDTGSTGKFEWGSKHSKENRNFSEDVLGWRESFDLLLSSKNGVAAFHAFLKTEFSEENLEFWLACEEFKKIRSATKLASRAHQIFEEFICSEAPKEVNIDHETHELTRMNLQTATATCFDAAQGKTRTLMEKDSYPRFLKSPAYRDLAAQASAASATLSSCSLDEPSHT
# Target sequence (P09471 whole entry, looked up): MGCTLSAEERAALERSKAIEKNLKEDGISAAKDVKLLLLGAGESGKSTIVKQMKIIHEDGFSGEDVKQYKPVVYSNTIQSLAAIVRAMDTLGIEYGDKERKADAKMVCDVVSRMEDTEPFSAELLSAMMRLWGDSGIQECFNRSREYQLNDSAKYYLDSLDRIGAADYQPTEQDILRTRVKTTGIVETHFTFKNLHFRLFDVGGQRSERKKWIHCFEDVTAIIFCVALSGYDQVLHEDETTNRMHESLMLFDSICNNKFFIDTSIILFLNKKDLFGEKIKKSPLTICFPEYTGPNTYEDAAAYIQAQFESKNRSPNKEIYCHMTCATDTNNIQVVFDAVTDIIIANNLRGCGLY
# INS promoter inh cell count: recorded beside INS promoter inh, whose call it bears; normalized cell count, %; measured here: cell count, toxicity; reference of the scale not given here;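 cells exposed to compound for 48 h; stained nuclei by imaging scaled within each plate; lower means fewer cells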
# HSV replic up primary fold: recorded beside HSV replic up, whose call it bears; fold increase; compound at 10 µM; measured here: primary screen fold increase 10 uM; tested in PC3 cells;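 GFP signal in the first replicate; 1 = infected wells without compound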
# Numbers without * were called inactive; i = inactive; . = no result given. Random draw from the library. About 1.3% of those tested had a hit in this group.
Compound	GALR2 agonist	HSV replic up	HSV replic up primary fold	PKD1 inh	INS promoter inh	INS promoter inh cell count	RGS16-Gao HTS
c1ccc(C(c2nnnn2Cc2ccco2)N2CCN(C3CCCC3)CC2)cc1 (configuration not stated)	0.1	i	0.91	-2	.	.	102
O=C1c2ccccc2C(=O)N1CCc1csc(-c2ccc(F)cc2)n1	-3.1	i	1.1	8	-97	105	116
Cn1nccc1C(=O)Nc1ccn(C23CC4CC(CC(C4)C2)C3)n1	-1.6	i	0.82	-1	-18	92	101
CCCCn1c(SCC(=O)NC2CC(C)(C)NC(C)(C)C2)nc2cc(S(N)(=O)=O)ccc21	.	i	1	.	.	.	105
O=C(NCC(F)(F)F)Nc1cccnc1	-3.4	i	0.88	-7	47	106	94
COc1ccc(N(CC(=O)NCc2ccco2)S(C)(=O)=O)cc1OC	-2.2	i	0.89	-1	47	64	100
CCOc1ccc(N(CC(=O)N2CCc3ccccc32)S(=O)(=O)c2c(C)noc2C)cc1	-0.3	i	1	6	.	.	105
CCSc1ccccc1C(=O)Nc1cccnc1	-1.6	i	1.1	-3	-14	56	101
CCCCn1c(=O)n(C)c(=O)c2c3c(sc21)COC(C)(C)C3	-1.4	i	1.1	-21	.	.	89
CSCCC(NC(N)=O)C(=O)Nc1ccc2ccccc2c1 (configuration not stated)	.	i	0.96	1	-20	99	106
Nc1nonc1C(=O)N/N=C/c1ccncc1	.	i	0.88	5	17	202	105
COc1ccc(/C=C/C(=O)NC(=S)N2CCN(C)CC2)cc1	.	i	0.86	1	19	98	112
CCOC(=O)c1cn2nc(Oc3ccccc3)ccc2n1	.	i	1.4	.	.	.	97
CN1c2ccccc2C(=O)/C(=C\Nc2ccc(F)cc2)S1(=O)=O	.	i	0.94	.	.	.	101
O=C(NCc1ccc2c(c1)CCO2)Nc1cccc(C(F)(F)F)c1	.	i	1	.	.	.	108
C=CC[n+]1c(-c2ccc(Cl)cc2Cl)csc1Nc1c(C)n(C)n(-c2ccccc2)c1=O	.	i	1	-5	.	.	108
Cc1ccc(NC2=C(Cl)C(=O)OC2OC(=O)c2ccco2)cc1C (configuration not stated)	-0.3	i	0.79	4	3	96	108
Cn1c(C(C)(O)C(O)c2ccccc2)nc2ccccc21 (configuration not stated)	-0.8	i	1	0	.	.	101
CCOC(=O)N1CCN(C(=O)c2ccc(CN(c3ccccc3)S(C)(=O)=O)cc2)CC1	-2.4	i	0.92	11	.	.	107
Cc1cccn2c(=O)c(/C=N/O)c(Nc3ccccc3F)nc12	.	i	0.82	.	.	.	102
COc1c(/C=N/NS(=O)(=O)c2ccc(C)cc2)c(CCN(C)C(C)=O)cc2c1OCO2	.	i	0.91	.	.	.	96
Cc1cc(C(=O)CSc2nnnn2C)c(C)n1-c1ccc2c(c1)OCCO2	-0.3	i	1	3	-18	42	123
CCCC(=O)NC(=S)Nc1cccc(C(C)=O)c1	-2.5	.	.	2	.	.	326
CCOC(=O)C(C#N)C(c1cccnc1)c1c(C)[nH][nH]c1=O (configuration not stated)	-1.5	i	0.88	0	21	124	97
CCOC(=O)N1CCN(c2c(-c3ccc(C)c(C)c3)c(=O)c2=O)CC1	-0.6	i	1	-13	-26	114	107

# Some of the entries so far, with values under each structure:
# Order of results – GALR2 agonist, HSV replic up, HSV replic up primary fold, PKD1 inh, INS promoter inh, INS promoter inh cell count, RGS16-Gao HTS
- Cn1c(C(C)(O)C(O)c2ccccc2)nc2ccccc21 (configuration not stated)
 : -0.8, i, 1, 0, ., ., 101
- CCOC(=O)N1CCN(C(=O)c2ccc(CN(c3ccccc3)S(C)(=O)=O)cc2)CC1
 : -2.4, i, 0.92, 11, ., ., 107
- Cc1cccn2c(=O)c(/C=N/O)c(Nc3ccccc3F)nc12
 : ., i, 0.82, ., ., ., 102

# Going on with the list.
Compound	GALR2 agonist	HSV replic up	HSV replic up primary fold	PKD1 inh	INS promoter inh	INS promoter inh cell count	RGS16-Gao HTS
Cc1ccc(-n2c(=O)c3cc4c(=O)n(-c5ccc(C)c(C)c5)c(=O)c4c(C(=O)c4ccc(C(=O)O)cc4)c3c2=O)cc1C	.	i	0.97	.	.	.	98
O=c1c2ccccc2nnn1CSc1ccc2ccccc2n1	-0.8	i	0.99	-5	11	76	102
O=C(CC1NC(=S)NC1=O)c1ccc(Cl)cc1 (configuration not stated)	.	i	1.1	.	.	.	104
C=CCC(COCc1ccccc1)NS(=O)(=O)c1ccccc1Br (configuration not stated)	.	i	0.75	.	.	.	99
COc1ccc2nc(SCC(=O)N(C)C3CCCCC3)c(C#N)cc2c1	1.5	i	0.98	-7	.	.	97
CCc1cc(=O)oc2c(C)c(O)c(CN3CCCCC3)cc12	2.4	i	0.94	-5	-71	40	104
Cc1cc(C(F)F)nn1CC(=O)NCc1ccco1	-0.2	i	0.89	-9	36	115	100
CCCC(=O)Nc1cc(OCC)c(NC(=O)NC2CCCCC2)cc1OCC	-1.1	i	0.77	-1	.	.	100
COc1cc(-c2nc3ccccc3s2)ccc1O	0.7	i	0.81	1	-29	103	100
O=C1OC2(c3ccccc3)C3CCCC2C13	-3.3	i	1.5	-8	26	61	111
COc1cc(C(=O)C(=O)c2cc(OC)c(O)c(OC)c2)cc(OC)c1O	.	i	1.1	.	.	.	109
Cc1cc(OCC(=O)Nc2ccc(S(=O)(=O)NC3=NCCCCC3)cc2)c(C(C)C)cc1Cl	-0.3	i	0.71	-18	20	49	168
Cc1[nH]nc(N)c1-c1ccccc1	.	i	0.98	10	13	126	103
O=C(CSc1nccc(=O)[nH]1)N1CCc2ccccc2C1	-0.8	i	0.89	-2	-37	114	101
CCOC(=O)C(C)Oc1nc(Oc2ccccc2)nc(N(C)C)n1 (configuration not stated)	-1.6	i	1	5	27	132	100
c1cncc(-c2nc(NCCCn3ccnc3)c3ccccc3n2)c1	.	i	0.82	-6	67	186	98
Cc1cc(C(=O)Nc2cccc(S(=O)(=O)N3CCCCC3)c2)c2ccccc2n1	.	i	0.94	-1	-92	122	103
CC1CCc2sc(C(=O)OCC(=O)NC(N)=O)cc2C1 (configuration not stated)	.	i	0.97	.	.	.	95
Cc1ccc(C2Oc3ccccc3C3=C2C(c2cccs2)n2ncnc2N3)cc1 (configuration not stated)	-0.7	i	0.9	-11	60	63	101
O=C(NCc1ccccn1)c1ccc([N+](=O)[O-])cc1	0.1	i	1	6	-14	84	114
COc1nn(-c2nc(-c3ccccc3)cc(C(F)(F)F)n2)cc1[N+](=O)[O-]	-1.5	i	0.95	-5	23	95	106
COC(=O)C1=C(C)NC(=S)NC1c1ccc(-c2cc(Cl)ccc2Cl)o1 (configuration not stated)	.	i	0.96	.	.	.	88
O=C(NCCN=C1NS(=O)(=O)c2ccccc21)c1ccc2nccnc2c1	1.2	i	0.94	-3	-20	112	100
Cn1c(NC(=O)/C=C/c2ccc(Cl)c(Cl)c2)cc(=O)n(C)c1=O	-0.6	i	0.92	-4	-5	141	101
CCc1n[nH]c(=S)n1/N=C/c1ccc(N(C)c2ccccc2)cc1	.	i	0.92	0	.	.	94

# Next results.
Compound	GALR2 agonist	HSV replic up	HSV replic up primary fold	PKD1 inh	INS promoter inh	INS promoter inh cell count	RGS16-Gao HTS
O=C(CN1CCN(c2ccc(O)cc2)CC1)Nc1ccc(SC(F)F)cc1	-0.6	i	0.76	0	8	132	109
C=CCOC(=O)C1=C(C)NC(=S)C(C#N)(CC=C)C1c1ccccc1Cl (configuration not stated)	.	i	1	.	.	.	97
CCCC(c1nnnn1CCc1ccccc1)N1CCN(C(=O)c2ccco2)CC1 (configuration not stated)	-3.1	i	0.97	6	-58	102	97
CSc1nc2cc(S(=O)(=O)N3CCCCC3)ccc2s1	.	i	1.1	.	.	.	104
CC(C)(C)c1ccc(O)c(N=Cc2cc(Br)ccc2O)c1	.	i	1.3	-3	-2	146	100
CC1(C)CC(=O)C(CC2=C(O)CC(C)(C)CC2=O)=C(O)C1	-0.3	i	0.95	-7	-12	61	105
CCn1c(=NC(=O)CN2C(=O)CCC2=O)sc2c(C)cc(C)cc21	-1.4	i	0.85	0	.	.	96
CCc1ccc(Nc2nnc(SC3CCOC3=O)s2)cc1 (configuration not stated)	-0.3	i	1.1	0	47	62	110
COc1ccc(Cl)cc1NC(=O)CCn1cnc2ccccc2c1=O	-0.2	i	0.75	-7	25	64	112
O=C(Nc1ccccc1)c1nnsc1S(=O)(=O)c1ccc(Cl)cc1	-0.4	i	0.92	-12	6	101	98
CC1=C/C(=C/N(C)C)C(=O)O1	.	i	0.96	-1	0	95	107
O=C(NCc1ccc2c(c1)OCO2)c1c[nH]c2ccc(S(=O)(=O)N3CCOCC3)cc2c1=O	-2.9	i	1.1	1	.	.	50
Cc1ccccc1OCC(=O)Nc1cccc(NC(=O)c2ccco2)c1	0.5	i	1.1	2	.	.	101
COC(=O)CCCC1=CC2=CC(=O)C(C)(OC(=O)c3cccs3)C(=O)C2=CN1CCCOC(C)C (configuration not stated)	.	i	0.86	.	.	.	101
COc1ccc2cc(C(=O)NC3CCCCC3)c(=O)oc2c1	1.0	i	0.86	3	20	59	106
CCCc1[nH]n(-c2nc3ccccc3s2)c(=O)c1C=NCCN1CCOCC1	-1.1	i	0.86	-8	33	59	102
Cc1nn(-c2ccccc2)c2[nH]c(=O)c(CNCc3ccc4c(c3)OCO4)cc12	2.0	i	1.1	4	.	.	92
NNC(=O)c1nnn(-c2nonc2N)c1-c1cccs1	-0.9	i	0.82	-6	-66	55	102
CN(C)c1ccc(/C=N/c2cc(-c3ccccc3)nn2-c2ccccc2)cc1	-1.6	i	0.97	0	-14	118	110
COc1cccc(CNc2nc3nc(C)cc(C)n3n2)c1	0.9	i	1	-5	64	172	102
C/C(=N\NC(=O)c1cc(C)nc2ccccc12)c1ccco1	.	i	0.83	9	-29	105	101
O=C(CCC1CC(=O)Nc2ccccc21)NCc1ccccc1 (configuration not stated)	-4.1	i	0.93	1	19	114	78
Cc1ccc(NCc2nnc(SCC(=O)N3CCCCC3)n2CC2CCCO2)c(C)c1 (configuration not stated)	-1.2	i	0.96	-4	-29	108	.
Cc1ccc(Cl)c(OC(=O)c2ccc(N3CCOCC3)c([N+](=O)[O-])c2)c1	-0.7	i	0.99	4	-19	113	100
CC(C)(C)C(=O)Nc1cccc(OC(F)(F)C(F)Cl)c1 (configuration not stated)	.	i	0.92	-4	.	.	104

# More results
Compound	GALR2 agonist	HSV replic up	HSV replic up primary fold	PKD1 inh	INS promoter inh	INS promoter inh cell count	RGS16-Gao HTS
CCCCC(CC)CNC(=O)c1ncn[nH]1 (configuration not stated)	.	i	1	1	.	.	106
Cc1nc2c(C(=O)NCc3ccc4c(c3)OCO4)c[nH]n2c(=O)c1Cl	-1.4	i	0.95	-2	.	.	100
CC1CCN(C(=O)CCCNC(=O)Cn2cnc3sc4c(c3c2=O)CCCC4)CC1	-1.4	.	.	-2	0	45	106
O=C(COc1ccccc1)NCC(=O)Nc1ccc(S(=O)(=O)NCc2ccco2)cc1	-2.6	i	0.84	0	53	71	108
COc1ccc(C2CC(O)(c3ccccc3)Oc3cc(OC)cc(OC)c32)cc1 (configuration not stated)	.	i	0.78	.	.	.	101
COc1ccc(OC)c(NC(=O)N2CCCC(CNS(=O)(=O)c3cccs3)C2)c1 (configuration not stated)	.	i	0.94	-1	.	.	108
COCC(=O)N1CCN(c2ccc([N+](=O)[O-])cc2)CC1	-0.8	i	1	5	-23	134	105
CCSc1nc(N2CCOCC2)c2c(c1C#N)CC(C)(C)N(C)C2	0.6	i	0.91	2	-86	106	101
CCCC(=O)NCCc1cc2cc(C)c(C)cc2[nH]c1=O	-0.4	i	0.99	-7	86*	137*	.
O=C(N/N=C/c1ccccn1)c1c[nH]c2ccccc12	.	i	0.98	.	.	.	94
CCN(C(=O)COC(=O)CNS(=O)(=O)c1ccccc1)c1ccccc1	.	i	0.99	-3	40	67	109
CCc1nc(N)c(C#N)c(-c2ccncc2)c1C	-1.6	i	0.87	-6	-11	52	105
Cc1cccc(NC(=O)CSc2nnc(C)c(=O)n2N)c1C	-0.4	i	1	-5	.	.	82
Cc1ccc(OCC(=O)N/N=C2\CCOc3c(C)cccc32)cc1	-1.6	i	0.88	-3	12	110	97

# Taken from the listing (3 entries):
Compound	GALR2 agonist	HSV replic up	HSV replic up primary fold	PKD1 inh	INS promoter inh	INS promoter inh cell count	RGS16-Gao HTS
CCc1nc(N)c(C#N)c(-c2ccncc2)c1C	-1.6	i	0.87	-6	-11	52	105
Cc1cccc(NC(=O)CSc2nnc(C)c(=O)n2N)c1C	-0.4	i	1	-5	.	.	82
Cc1ccc(OCC(=O)N/N=C2\CCOc3c(C)cccc32)cc1	-1.6	i	0.88	-3	12	110	97
